Screens from PubChem BioAssay.
LT uptake inh: blocks cellular internalization of anthrax lethal toxin | Cells, anthrax lethal toxin internalization, FRET ratio (460/530) | hit rate 0.67% among 70,000 | AID 912 | Potency, µM (top dose mostly 40 µM), without a hit: at the top dose activity change, negative = inhibition, usual class: inhibitors; active = well fitted falling ratio curve with the 530 nm signal flat; inconclusive = other ratio curves, or a change in one channel alone; inactive = flat curves in the ratio and both channels; the % refers to the ratio; further: on the % scale 0 is the no-effect control and ±100 the full control effect; nearly all actives have a fitted effect of over 50% in size; tested in ME-180 cells; beta-lactamase reporter
SmPrx2 inh: blocks S. mansoni peroxiredoxin 2 enzymatic activity. S. mansoni Prx2 activity coupled to TGR/GSH (TGR is thioredoxin glutathione reductase), NADPH fluorescence loss, qHTS; some inactives read as strong as hits. Potency, µM. hit rate 0.07% among 65,000. AID 448; active means full or partial inhibition curve with a strong effect at the top dose; inconclusive means weaker partial or single-point curve; inactive means no accepted curve; further: series up to 57 µM; many of its hits are not listed in these tables
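Coupled assay in which S. mansoni TGR passes NADPH reducing equivalents via glutathione to Prx2, which reduces H2O2. Compounds were preincubated 15 min at room temperature with 25 nM TGR/50 nM Prx2 mix. Kinetic NADPH fluorescence loss (ex 365/em 450 nm) was monitored.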
Active calls of the source: *; i = inactive; ? = inconclusive; nt = not tested or not shown; & = joins results of further samples; [ ] = another dose, or the depositor's remark. Potency means the concentration at half of the fitted maximal effect. Some of the compounds tested, so the mix of outcomes need not match the whole.

The opening 2 records, ahead of the listing:
compound	LT uptake inh	SmPrx2 inh
CC1=NN(c2ccc(S(=O)(=O)O)cc2)C(=O)/C1=C\c1ccc(Cl)cc1	-2%[8 µM]	>57
CC1(C)Cc2noc(N)c2C(C)(C)N1OC(=O)c1cccs1	8%	>57

Main list, from the first entry:
compound	LT uptake inh	SmPrx2 inh
CC1=NN(c2ccc(S(=O)(=O)O)cc2)C(=O)/C1=C\c1ccc(Cl)cc1	-2%[8 µM]	>57
CC1(C)Cc2noc(N)c2C(C)(C)N1OC(=O)c1cccs1	8%	>57
CCOC(=O)C1CCCN(C(=O)Cn2nc(Cc3cccnc3)c3ccccc3c2=O)C1 (stereo not given)	2%	>57
CCOC(=O)c1cnc(SCC(=O)Nc2cc(OC)cc(OC)c2)nc1N	-13%	>57
c1coc(-c2nc3nc4ccccc4nc3n2CC2CCCO2)c1 (stereo not given)	?	>57
CCC(=O)N1CCc2cc(OC)c(OC)cc2C1COc1ccc(C(=O)OC)cc1 (stereo not given)	nt	>57
CC1CCCC(NC(=O)CC2Nc3ccccc3NC2=O)C1C (stereo not given)	13%	>57
Cc1nc2c3cnn(-c4ccc(C)c(C)c4)c3ncn2n1	-2%	>57
CC(CN1CCN(C)CC1)OC(=O)c1ccc(Cl)cc1 (stereo not given)	2%	>57
Cc1ccc(C(=O)CSC2=NC(N)=C(C#N)C3(CCCCC3)C2C(N)=O)cc1 (stereo not given)	?	nt
Cc1cccc(N2CCN(C(=O)COc3cc(=O)n(C)c4ccccc34)CC2C)c1 (stereo not given)	2%	>57
CN1CCN(S(=O)(=O)c2cccc(C(=O)NC3CCCc4ccccc43)c2)CC1 (stereo not given)	-6%	>57
C=CCN1C(=O)CN=C1Nc1cc(C)ccc1C	-7%	>57
CN(C)CC[C@@H](C(=O)C(C)(C)C)c1ccccn1	1%[8 µM]	>57
Cc1cc2oc(=O)c3c(c2cc1OCc1nn[nH]n1)CCCC3	-5%	>57
C=C(c1cccc2ccccc12)P(=O)(O)O	-13%	>57
CCCCCOC(=O)c1ccc(NC(=O)c2ccco2)cc1	-10%	>57
COc1ccc(S(=O)(=O)NC(CC(=O)NCc2ccc3c(c2)OCO3)c2ccco2)cc1 (stereo not given)	-19%	>57
CCc1c(O)nc(SCC(=O)Nc2ccccc2OC)[nH]c1=O	6%	nt
CCOC(=O)c1ccc(NC(=O)N2CC(C)OC(C)C2)cc1 (stereo not given)	-7%	nt
CCC(=O)N1CCc2cc(S(=O)(=O)CCC(=O)N3CCc4ccccc4C3)ccc21	13%	>57
CCN1CCc2c(sc(NC(=O)c3ccc(S(=O)(=O)N4CCOCC4)cc3)c2C(=O)OC)C1	-30%	>57
COc1cccc(-c2nc(-c3ccc(NC(=O)Cc4ccccc4OC)cc3)no2)c1	?	>57
Cn1c(=O)c2c(nc(CN3CCN(C(=O)c4ccco4)CC3)n2Cc2ccc(F)cc2)n(C)c1=O	10%	>57
O=C(Nc1c(F)cc(F)cc1Br)c1cc(-c2ccc(O)cc2)on1	?	>57
Cc1c(C(C)O)nnn1-c1nonc1N (stereo not given)	-4%	>57
COc1cc(OC)c(OC)cc1CNC1CCCCCC1	-18%	>57
NS(=O)(=O)O	?	nt
O=C(c1sc2ccccc2c1Cl)N(Cc1ccco1)C1CCS(=O)(=O)C1 (stereo not given)	-17%	>57
Cn1c(=O)c(-c2ccc(Cl)cc2)nc2cnc(N3CCNCC3)nc21	?	>57
Cc1ccc2oc(=O)c3cnn(CC(=O)N4CCc5ccccc5C4)c3c2c1	19%	>57
N#CC(C(=O)NCCc1ccccc1)c1nc2ccccc2nc1N1CCOCC1 (stereo not given)	5%	>57
COc1ccc(NC(=O)CCN2C(=O)C3CC=C(Cl)CC3C2=O)cc1 (stereo not given)	8%	nt
COC(=O)N1CCC2(CCN(C(=O)Nc3ccc(OC)cc3)CC2)CC1	?	>57
COc1ccccc1OCc1ccc(C(=O)N2CCN(C(=O)c3ccco3)CC2)cc1	-26%	>57
NC(=O)CCN(Cc1ccccc1)S(=O)(=O)c1ccccc1	-4%	>57
Cc1c(C(=O)NCCc2ccccc2)oc2ccc(S(=O)(=O)N3CCOCC3)cc12	-25%	>57
COc1ccc(C2C(C(=O)Nc3cc(C)on3)c3ccccc3C(=O)N2C)cc1OC (stereo not given)	?	>57
COCCN(CCOC)c1nc(C)nc2c1nc(-c1ccccc1)n2CCCN(C)C	-10%	nt
Cc1ccc(Cn2nnnc2CN2CCC(n3nnc4cc(C)ccc43)CC2)cc1	8%	>57
Cc1nnc(N(Cc2ccccc2)C(=O)c2cnccn2)s1	?	>57
Cn1cccc1Cc1nnc(SCC(=O)NCCc2ccccc2)n1-c1ccc(F)cc1	?	nt
Cc1nc(N2CCN(c3ccccc3)CC2)[nH]c(=O)c1Cc1ccccc1	1%	>57
CCOC(=O)c1cnc(-n2cc(C)cn2)nc1Nc1ccccc1OC	0%	>57
O=C1CCc2c(ccc3ccccc23)O1	?	i
Cc1ccc(NC(=O)CCn2cnc3ccccc3c2=O)cc1Cl	-13%	>57
CN(c1cccc(NC(=O)CN2C(=O)c3ccccc3S2(=O)=O)c1)S(C)(=O)=O	-5%	>57
CCOC(=O)CSc1nnc(CNC(=O)c2ccc(OC)cc2OC)n1-c1ccc(OC)cc1	?	>57
CCOc1ccccc1N1CCN(CC(O)COc2ccc3c(C)cc(=O)oc3c2)CC1 (stereo not given)	?	>57
COC(=O)c1[nH]c2ccccc2c1NC(=O)CN1CCCc2ccccc21	?	>57

Next records follow:
compound	LT uptake inh	SmPrx2 inh
Nc1nnc(SCc2ccccc2F)n1-c1ccccc1	0%	>57
CCC1CCCCN1Cc1ccc(CNS(=O)(=O)c2ccc3c(c2)oc(=O)n3C)o1 (stereo not given)	20%	>57
Cc1nc2cnc(N3CCN(C)CC3)nc2n(C)c1=O	15%	>57
Cc1ccc2oc(=O)c3cnn(CC(=O)NC4CCN(Cc5ccccc5)CC4)c3c2c1	-10%	>57
Cc1nn(Cc2ccc(Cl)cc2)c(C)c1NC(=O)c1cc(-c2ccco2)on1	-18%	>57
O=C(c1cc(-c2cccnc2)nc2ccc(Br)cc12)N1CCN(c2ncccn2)CC1	2%	>57
O=C(Oc1ccc2c(=O)c(Cl)coc2c1)c1ccncc1	4%	>57
CCCCOC(=O)Nc1ccccc1C(N)=O	-18%	nt
Nc1nonc1C(=O)NCCNC(=O)c1ccccc1F	-7%	>57
C(=N\n1cnnc1)/c1ccc(-c2ccccc2)cc1	-4%	nt
CCCN1CCC[C@H](c2cccc(O)c2)C1	14%&0%	>57&>57
Cc1nc2cc(C(=O)O)ccc2s1	24%	>57
C[C@@H](C[C@H](N)C(=O)O)C(=O)O	12%[8 µM]	>57
O=C(O)C1(P(=O)(c2ccccc2)c2ccccc2)CCC1	-15%	>57
O=C(c1cc(Br)ccc1O)c1cc(Br)ccc1O	-3%[8 µM]	>57
O=C1CN(C(=O)COC(=O)C2CC(=O)N(Cc3ccco3)C2)c2ccccc2N1 (stereo not given)	-15%	>57
NC(=O)c1ccccc1-c1nc(-c2ccccc2)no1	9%	>57
O=C(O)c1nonc1-c1nonc1C(=O)O	?	>57
CCOC(=O)Cc1csc(NC(=O)c2cccnc2)n1	-6%	>57
O=C(Nc1ccc(F)c(F)c1)c1ccc(F)c(S(=O)(=O)N2CCOCC2)c1	nt	>57
Clc1ccc(Cl)c(Nc2ccnc(SCc3ccccc3)n2)c1	?	>57
c1ccc(Nc2nc(-c3cccs3)cs2)nc1	-21%	>57
CC(C)[C@@H](C)/C=C\[C@@H](C)[C@@H]1CC[C@H]2C3=CC=C4C[C@@H](O)CC[C@]4(C)[C@H]3CC[C@]21C	-12%[8 µM]	>57
Cc1cc(C)c2[nH]c(=O)c(CN(CC3CCCO3)S(=O)(=O)c3ccc4c(c3)OCCO4)cc2c1 (stereo not given)	-2%	>57
CCCC1=C(C(=O)OCC)C(c2ccc(F)cc2)n2ncnc2N1 (stereo not given)	?	>57

Complete entries, quoted from the list. Order of screens: LT uptake inh	SmPrx2 inh
O=C(O)C1(P(=O)(c2ccccc2)c2ccccc2)CCC1 across the screens: -15%	>57
CN1CCN(S(=O)(=O)c2cccc(C(=O)NC3CCCc4ccccc43)c2)CC1 (stereo not given) across the screens: -6%	>57
CCOC(=O)c1cnc(-n2cc(C)cn2)nc1Nc1ccccc1OC across the screens: 0%	>57
Cc1nc2cc(C(=O)O)ccc2s1 across the screens: 24%	>57
COc1ccc(NC(=O)CCN2C(=O)C3CC=C(Cl)CC3C2=O)cc1 (stereo not given) across the screens: 8%	nt

Further structures
compound	LT uptake inh	SmPrx2 inh
COc1ccc(N(C(=O)c2cccnc2)S(=O)(=O)c2ccc3c(c2)n(C)c(=O)n3C)cc1	-2%	>57
Cc1ccc(N)cc1N	-2%	nt
CCCS(=O)(=O)N1CCC(C(=O)N2CCC3(CC2)OCCO3)CC1	5%	>57
O=C(NCCCn1ccnc1)C1CC(c2cccc(Br)c2)=NO1 (stereo not given)	9%	>57
CN(C)c1ncc2nc(-c3ccc(Cl)cc3)c(=O)n(C[C@H]3CCCO3)c2n1	?	>57
O=C(NC1CCCCCC1)C1c2ccccc2C(=O)N1CCCN1CCOCC1 (stereo not given)	4%	>57
O=C1OC2(c3ccc(O)cc3Oc3cc(O)ccc32)c2c1c(-c1ccccc1)c(-c1ccccc1)c(-c1ccccc1)c2-c1ccccc1	?	>57
N#Cc1cccc(NC(=O)N2CC[C@@]3(CCCN(C(=O)c4ccco4)C3)C2)c1	?	>57
CCOC(=O)c1cccc(NC(=O)CSc2nc3ccccc3c(=O)n2CC)c1	2%	>57
O=C(Nc1cnc2ccccc2c1)c1cccc(-n2cnnn2)c1	-3%	>57
c1ccc(-c2nn3c(-c4ccccc4)nnc3s2)cc1	nt	>57
COc1ccc(C(=O)Cn2c(N3CCOCC3)nc3c2c(=O)n(C)c(=O)n3C)cc1	nt	>57
COC(=O)COc1ccc(S(=O)(=O)NCc2ccncc2)cc1	-4%	>57
O=C(NCc1ccc2c(c1)OCO2)C1CCCN(S(=O)(=O)c2cccs2)C1 (stereo not given)	-5%	>57
Cc1cnn(C(=O)c2oc3ccccc3c2C)c1	11%	>57
CCOC(=O)CN1C(=O)COc2ccc(Cl)cc21	-7%	>57
COc1cccc(-c2csc(N3CCN(S(=O)(=O)c4ccc(F)cc4)CC3)n2)c1	-12%	>57
COC(=O)C/C=C\[C@@H](C)[C@@H](/C=N\OC[C@@H](O)[C@H]1O[C@H]2OC(C)(C)O[C@H]2[C@@H]1O)NS(=O)(=O)c1ccc(C)cc1	3%[1.6 µM]	nt
Cn1c(CCCNC(=O)c2ccccc2)nc2ccccc21	7%	>57
COCc1cc(C)nc2sc(C(=O)N3CCN(c4ccccc4)CC3)c(N)c12	0%	>57
Cn1c(=O)oc2cc(S(=O)(=O)N3CCN(C(=O)c4ccco4)CC3)ccc21	?	>57
Cc1cccn2c(=O)c3cc(C(=O)NCc4ccccn4)n(C)c3nc12	13%	>57
Nc1nn(S(=O)(=O)c2cccc3nsnc23)cc1-c1ccc(Br)cc1	?	>57
COc1ccc(CCN(Cc2nc(-c3ccccc3)no2)Cc2nc(-c3ccccc3)no2)cc1OC	0%	>57
CCn1cc(Br)c(C(=O)Nc2ccc(C(=O)OC(C)C)cc2)n1	-9%	>57
O=C(c1ccc(C#CC2(O)CCCCC2)cc1)N1CCOCC1	5%	>57
CC#CP(=O)(OCC)C(O)(c1ccccc1)C(F)(F)F (stereo not given)	4%	>57
CCOC(=O)C1=C(c2ccccc2)Nc2ncnn2C1c1ccccn1 (stereo not given)	?	>57
COC(=O)[C@@]1(Cc2ccc(OC)cc2)[C@H]2c3cc(C(=O)N4CCCC4)n(Cc4cc(C)n(C)n4)c3C[C@H]2CN1C(=O)c1ccccc1	?	>57
CO[C@@H]1COC(=O)C/C=C\[C@@H](C)[C@H](OC)COC(=O)[C@H](COCc2ccccc2)NC(=O)C/C=C\[C@H]1C	-11%[1.6 µM]	nt
COc1ccccc1NC(=O)N1CCN(c2ncccn2)CC1	-7%	>57
Cc1sc2ncn(CC(=O)OC(C)C(=O)NC(C)(C)C)c(=O)c2c1C (stereo not given)	-17%	>57
O=C(Nc1c(-c2ccccc2)nc2ccccn12)c1ccco1	6%	>57
O=C(CSc1ncnc2nc[nH]c12)c1ccccc1	-5%[8 µM]	>57
COc1ccc(C(=O)N2CC=C(c3ccccc3)CC2)cc1S(=O)(=O)N1CCOCC1	6%	>57
Cc1cc(-c2ccc(Cl)cc2)n2nc(N)nc2n1	5%	>57
CC(C)(C)n1nnnc1C(c1cccs1)N(Cc1ccccc1)Cc1cccnc1 (stereo not given)	?	>57
